Screens (PubChem BioAssay)
HIV Env fusion: blocks HIV Env-driven cell-cell fusion | HeLa-JRFL Env/CEM21 cell fusion, luciferase | inhibition, % at 12.3 µM | 360,000 tested, 1.1% active | AID 651610;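 active means mean replicate inhibition score of at least 50 and every replicate individually at or above 50; inconclusive means only one of the two criteria met; inactive means mean below 50 and not all replicates reaching 50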;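 further: 0% = plate neutral controls and 100% = maraviroc near 300 nM; one replicate is shown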
eIF4H inh: inhibitors of RNA binding by human eIF4H; 290,000 tested, 0.94% active; inhibition, % at 35 µM; Q15056; eIF4H fluorescence polarization binding assay;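 active means 50% or more with normal probe brightness, or confirmed in later tests; inconclusive means above 50% with abnormal brightness, or retests that disagree; inactive means below 50% or failed in later tests; about a fifth of its hits are not listed in these tables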;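 further: calls also rest on retests at 20 µM and on dose response follow-up; 0% = protein and probe with vehicle and 100% = probe without protein; strong numbers were not always called active; many hits fall short of the cut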
UUG fidelity: yeast start codon fidelity modulation; S. cerevisiae UUG-firefly luciferase reporter, luminescence/redox ratio; activity score, % at 18.7 µM; 350,000 tested, 0.13% active;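 active means replicate mean at a twofold rise or more, about +100% in these data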;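 further: firefly luciferase made from a UUG start codon reports start codon fidelity; reporter light over untreated wells divided by growth signal over untreated wells; some hits fall short of that in this replicate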
PABP polyA inh: blocks human PABP binding to poly(A) RNA; P11940; fluorescence polarization; inhibition, % at 35 µM; 290,000 tested, 1% active; AID 2014;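 active means 50% or more with normal probe brightness, or confirmed in later tests; inconclusive means above 50% with abnormal brightness, or retests that disagree; inactive means below 50% or failed in later tests; about a fifth of its hits are not listed in these tables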;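 further: calls also rest on retests at 20 µM and on dose response follow-up; controls were probe without protein and protein plus probe with vehicle; some compounds called inactive have numbers as strong as hits; many hits fall short of the cut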
Rce1 inhib: blocks yeast Ras-converting enzyme; Q03530; calls only; AID 2563; yeast membranes, quenched prenylated peptide cleavage fluorescence; 290,000 tested, 0.27% active;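 active means fall in fluorescence gain of 50% or more versus controls, with final raw signal at or below 3038400; inconclusive means same 50% fall but final raw signal above 3038400; inactive means fall in fluorescence gain under 50%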;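 further: plate controls were neutral control wells for no effect and wells lacking membranes for full effect; tested at 10 µM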
Target sequence (Q03530 whole entry, looked up): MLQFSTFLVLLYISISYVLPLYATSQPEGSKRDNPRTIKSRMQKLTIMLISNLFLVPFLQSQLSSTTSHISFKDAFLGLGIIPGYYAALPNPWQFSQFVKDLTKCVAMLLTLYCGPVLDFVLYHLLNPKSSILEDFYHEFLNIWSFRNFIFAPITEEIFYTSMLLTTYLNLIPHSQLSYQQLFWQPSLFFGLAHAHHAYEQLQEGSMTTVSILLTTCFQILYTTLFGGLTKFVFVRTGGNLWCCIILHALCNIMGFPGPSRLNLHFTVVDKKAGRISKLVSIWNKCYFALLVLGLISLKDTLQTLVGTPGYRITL
MT1-MMP act inh: inhibitors of human MT1-MMP activation. P50281. HT1080 RFP-PRO-GFP cells, GFP/RFP ratio fluorescence, overnight; percent of plate control window, DMSO zero. GFP/RFP ratio change, % at 20 µM. 360,000 tested, 0.061% active. AID 651647;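 active means GFP/RFP ratio change of at least 30% with cell ATP level not reduced by more than half and red fluorescence within 50% of control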; further: strong numbers were not always called active
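Test system: HT1080 RFP-PRO-GFP cells; Benchmarks: DMSO and RFP-L50D-GFP cell wells; Timing: cells overnight before dosing, compound overnight, 37 °C, 5% CO2; Compound: one 20 µM compound dose with 1% DMSO; Read-out: GFP/RFP fluorescence ratio.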
CSC inhib: cancer stem cell inhibition. cancer stem cell-like cells viability, luminescence. inhibition, % at 7.5 µM. 300,000 tested, 1.1% active;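 active means mean at 75% or more and at least half the replicates too; inconclusive means mean and replicates disagree; tested in HMLE shEcad cells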;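 further: 0% = median of negative and 100% = median of positive control wells; the first replicate is given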
MT1-MMP act inh RFP: further read-out of MT1-MMP act inh, marked with its call; RFP signal change, %; measured here: RFP expression control read;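 0 = vehicle wells; hits needed this value within 50% of zero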
* hit, by the source's call; i = inactive; ? = inconclusive; . = no result given; [ ] = remark or other dose. Only part of the results is shown, so the mix of outcomes need not match the whole.

SMILES | HIV Env fusion | eIF4H inh | UUG fidelity | PABP polyA inh | Rce1 inhib | MT1-MMP act inh | MT1-MMP act inh RFP | CSC inhib
CN(C)S(=O)(=O)c1cccc(NC(=O)c2ccc(N3CCOCC3)c([N+](=O)[O-])c2)c1 | . | -16 | . | 21 | i | 8 | -6 | 2
CC(OC(=O)c1cccc(S(=O)(=O)N2CCCCCC2)c1)C(=O)Nc1ccc(S(N)(=O)=O)cc1 (configuration not stated) | -7 | . | 15 | . | i | 4 | -2 | -19
COCCN(Cc1cc2cc3c(cc2nc1Cl)OCO3)C(=O)Nc1ccc(OC)cc1 | 14 | 7 | . | 7 | i | -5 | -18 | -9
CCCNC(=O)N1C[C@H](O)COC[C@@H]2O[C@@H](CC(=O)NCCCN3CCOCC3)CC[C@H]21 | 18[16.7 µM] | . | 16 | . | . | 9 | 1 | .
O=C(Cn1c(=O)c2cccn2c2ccccc21)NCCc1ccc(Cl)cc1 | -4 | -32 | -21 | -10 | i | -2 | 0 | 1
COC(=O)/C=C/C1=CN(Cc2ccccc2)CCC1=O | 3 | . | -11 | . | . | 16 | 1 | -11
CC1(C(=O)NS(=O)(=O)c2cccc(F)c2)CCN1C(=O)Cc1ccc(Cl)cc1Cl (configuration not stated) | 32 | . | -11 | . | . | -1 | 0 | .
CC(=O)OCCN(CCCn1c(-c2ccncc2)nc2ccccc21)c1nc(CN2CCCCC2)cs1 | -13 | 0 | -28 | -12 | i | -7 | 3 | -20
Nc1cc(=O)nc(SCC(=O)NC2CCCCC2)n1-c1ccccc1 | 0 | 3 | -25 | 18 | i | 0 | 3 | -11
O=C1C=C(c2ccc(F)cc2OCc2ccccc2)C[C@@H](c2ccc(F)cc2)C1 | 40 | . | -19 | . | . | -1 | -6 | 93*
CN1CCN(C(=O)C2=C[C@@H](c3csc4ccccc34)C[C@@H](OCc3ccc(CO)cc3)O2)CC1 | -12 | -4 | 10 | -10 | i | 4 | -1 | -9
Cc1cccc(N2CCN(c3nc4ccc(Cl)cc4n4cnnc34)CC2)c1C | 17 | 2 | -20 | -2 | i | 2 | 0 | 24
COc1ccc(/C=N/n2cnnc2)cc1Oc1nc(Cl)ncc1F | -2 | 3 | -13 | -14 | i | 1 | 3 | -9
Cc1cc(OCC(=O)NCC(C)C)cc(C)c1Br | -45 | 6 | -17 | -4 | i | -1 | -2 | -11
O=C1CC(=O)N(c2cccc(F)c2)N1 | -11 | 0 | . | -5 | i | 5 | 7 | -3
COc1cc(C(CCN2CCCC2)c2c(OC)cc(OC)c3ccc(=O)oc23)cc(OC)c1OC (configuration not stated) | 7 | -3 | -20 | -10 | i | 1 | 2 | 5
CCOc1cc(NC(=O)c2ccccc2C)c(OCC)cc1NC(=O)C1=Cc2ccccc2OC1 | -6 | 4 | -19 | -7 | i | 5 | -1 | .
COC(=O)C1C2C=CC3(CN(c4cccc(Cl)c4)C(=O)C13)O2 (configuration not stated) | -1 | -2 | -20 | 1 | i | 2 | 7 | -2
Oc1ccc(/C=N/Nc2ccc(Cl)nn2)cc1O | -47 | -5 | . | 4 | i | 1 | -7 | 12
Cc1ccc(S(=O)(=O)NC(=O)NCCCCNC(=O)NS(=O)(=O)c2ccc(C)cc2)cc1 | -37 | -11 | 2 | -2 | i | -3 | -1 | -4
O=C(CC(C(=O)O)c1ccc(Cl)cc1)c1ccc(Cl)c(Cl)c1 (configuration not stated) | -22 | -4 | -35 | -4 | i | 0 | 5 | 3
Fc1ccccc1/C=N/Nc1nc2ccccc2o1 | -54 | 11 | -16 | 1 | i | 0 | -3 | -2
O=C(c1ccccc1OCc1ccccc1Br)N1CCN(c2ncccn2)CC1 | -12 | 5 | -4 | -2 | i | -1 | -3 | 5
Cc1cccc(N(CC(=O)NC2CCCCC2)C(=O)c2c(C)noc2C)c1 | -53 | -12 | -12 | -4 | i | 1 | -1 | 2
Cc1cccc(-c2noc(CCCC(=O)NC3CCCC3)n2)c1 | 0 | 1 | 9 | 4 | i | 1 | -1 | -4
CC1CCN(CCCNC(=O)c2ccc(Cn3c(=S)[nH]c4ccc(Br)cc4c3=O)cc2)CC1 | . | 0 | . | 25 | i | . | . | 3
COc1cc2c(O)cc(C(=O)O)c(-c3cc(OC)c(OC)c(OC)c3)c2cc1OC | -13 | . | 8 | . | . | 2 | 1 | .
CCc1nn(CCCC(=O)NC(C)c2ccccc2)c(=O)c2cc3occc3n12 (configuration not stated) | 6 | 4 | -2 | -1 | i | 0 | 0 | -8
CC(C)(C)c1nnc2sc(SCC(=O)N3CCc4ccccc43)nn2c1=O | 14 | 5 | -20 | 22 | i | -1 | -2 | 6
CC1CCCCN1C(=O)c1cc(S(=O)(=O)N2CCOCC2)ccc1Cl (configuration not stated) | . | . | 1 | . | . | -2 | -3 | -8

Single values from the list:
Result of `CCCNC(=O)N1C[C@H](O)COC[C@@H]2O[C@@H](CC(=O)NCCCN3CCOCC3)CC[C@H]21` under UUG fidelity: 16
Result of `COc1cc(C(CCN2CCCC2)c2c(OC)cc(OC)c3ccc(=O)oc23)cc(OC)c1OC` (configuration not stated) under HIV Env fusion: 7
Result of `CC(OC(=O)c1cccc(S(=O)(=O)N2CCCCCC2)c1)C(=O)Nc1ccc(S(N)(=O)=O)cc1` (configuration not stated) under CSC inhib: -19

Later entries
SMILES | HIV Env fusion | eIF4H inh | UUG fidelity | PABP polyA inh | Rce1 inhib | MT1-MMP act inh | MT1-MMP act inh RFP | CSC inhib
CC1(C)CN(C(Cc2ccccc2)C(N)=O)C1=O (configuration not stated) | -4 | 4 | -6 | 6 | i | 0 | -7 | -3
CCOC(=O)c1c(-c2ccc(F)cc2)csc1NC(=O)c1c(-c2ccccc2)noc1C | . | 3 | -18 | 9 | i | 3 | -5 | 21
CCOc1cc(/C=C2\CCCc3c2nc2ccccc2c3C(=O)O)ccc1OC | 11 | ? | 7 | ? | i | -57 | 7 | 7
CC1=C(CCN2CCN(C3CCCC3)C(CCO)C2)C(C)(C)CCC1 (configuration not stated) | 6 | -10 | -12 | -8 | i | -1 | 2 | -2
CC1CCC(NC(=O)Cn2cc3c(n2)CCCC3)CC1 (configuration not stated) | -58 | -6 | -13 | 3 | i | 10 | 3 | -1
CC(NCCc1ccc(S(N)(=O)=O)cc1)C(=O)NCCc1ccc(F)cc1 (configuration not stated) | -2 | 7 | -8 | 9 | i | 4 | 2 | -11
Cc1ccccc1CSCC(=O)NCCSc1ccccn1 | 37 | -9 | . | -12 | i | 2 | -1 | -11
Cc1cc2c(ncn2C)c(NS(=O)(=O)c2ccc(F)cc2)c1C | 2 | -9 | -16 | 8 | i | 1 | 1 | -10
COc1ccc(NC(=O)/C(Cl)=C(/Cl)S(=O)(=O)Cc2ccc(C)cc2)cn1 | . | -1 | -15 | -7 | i | 2 | -5 | .
Cc1ccc(S(=O)(=O)Oc2ccc(/C=C3/C(=N)N4C(=NC3=O)SN=C4S(C)(=O)=O)cc2)cc1 | 5 | 6 | -24 | 8 | i | 0 | 3 | 17
O=C(c1ccccc1)c1ccc(OCC(=O)N2CCOCC2)cc1 | 16 | -7 | . | 4 | i | 1 | -1 | -1
CCc1ccc(C2NC(c3ccc(CC)cc3)C([N+](=O)[O-])C(C)(C)C2[N+](=O)[O-])cc1 (configuration not stated) | . | -2 | . | -7 | i | 2 | -4 | 3
Cc1noc(C)c1S(=O)(=O)N(C)C[C@H]1Oc2c(NC(=O)NC3CCCCC3)cccc2C(=O)N([C@H](C)CO)C[C@@H]1C | -14 | . | -12 | . | . | 0 | 3 | .
C=CCNC(=S)Nc1sc2c(c1C(N)=O)CCCC2 | -2 | -11 | -22 | 0 | i | 1 | -3 | 21
O=C(Nc1ccccc1)N1CCN2C(=O)c3ccccc3C12c1ccccc1 (configuration not stated) | . | 4 | 8 | 4 | i | -9 | -7 | -5
CCC(C)C(NC(=O)OC(C)(C)C)C(=O)NC(CC(C)C)C(N)=O (configuration not stated) | . | -3 | -14 | 8 | i | -2 | -1 | 3
CCOC(=O)N1CCC(NC(=O)CN(C)S(=O)(=O)c2cc3c(cc2Cl)NC(=O)CO3)CC1 | . | 4 | -11 | 0 | i | 7 | -3 | -10
O=C(Nc1nc2cc3c(cc2s1)OCO3)C1CCCCC1 | -122 | 2 | -28 | -17 | i | -8 | -19 | -1
COc1cccc(C(=O)C2CCCN(Cc3cccn3-c3ccccn3)C2)c1 (configuration not stated) | 24 | 2 | . | -10 | i | 5 | 3 | 24
O=C(NCc1csc(-c2ccccc2)n1)c1cc(F)cc2c1OCOC2 | -3 | -14 | -5 | -5 | i | 0 | -2 | 22
Cc1cccc([C@H]2[C@@H]3C=CC[C@@H](C)[C@@H]3C(=O)N2Cc2ccccc2)c1 | -17 | . | 8 | . | . | -8 | -9 | .
CCOc1ccc(CCNC(=O)c2cn(C)c3ccc(S(=O)(=O)N4CCOCC4)cc3c2=O)cc1OCC | 11 | -12 | -14 | 9 | i | -2 | 0 | -5
CCOC(=O)N1CCN(C(=O)c2cc(COc3c(F)cccc3F)on2)CC1 | . | -14 | -6 | -10 | i | -3 | -1 | -5
Cc1ccc(C(c2c(C)[nH][nH]c2=O)c2c(C)[nH][nH]c2=O)cc1[N+](=O)[O-] | -48 | 2 | -15 | -4 | i | 4 | 7 | -14
CCCOC(=O)CN1C(=O)c2ccc(C(=O)OCCC)cc2C1=O | . | -8 | 0 | -5 | i | 1 | 9 | -15
CCN1CCN(C(=O)c2ccc(CS(=O)(=O)Cc3ccccc3F)o2)CC1 | . | -7 | -1 | 6 | i | 12 | 4 | -16
Cn1c(N)c(C(=O)COC(=O)[C@@H]2CCCN2S(=O)(=O)c2ccc(Cl)cc2)c(=O)n(C)c1=O | 5 | -3 | . | -10 | i | 2 | 3 | -4
C=CCOC(=O)C(C#N)c1nc2ccccc2nc1N1CCN(Cc2ccc3c(c2)OCO3)CC1 (configuration not stated) | . | 69* | -10 | 100* | i | -9 | -5 | 38
O=C(COC(=O)c1ccccc1Br)NC1CCCC1 | -7 | 1 | 3 | -2 | i | 1 | 2 | -6
O=C(COC(=O)Cn1nc(-c2ccccc2)oc1=O)Nc1ccc(F)cc1 | -235 | . | -5 | . | . | 0 | 1 | -6
Cc1nc(Cl)nc(N(C)c2ccccc2)c1[N+](=O)[O-] | 8 | -10 | . | 2 | i | -1 | 2 | -13
Cc1nnc(NC(=O)c2csc3c2CCCC3)s1 | -8 | 0 | . | 3 | i | . | . | -5
CCOc1ccc(N(CC)S(=O)(=O)c2c(C)[nH]c(=O)[nH]c2=O)cc1 | -18 | 2 | -5 | -13 | i | 1 | 2 | -3
Cc1cc(OCC(=O)OCC(=O)N(Cc2ccccc2)C(C)(C)C)ccc1Cl | 12 | . | -13 | . | . | -1 | 3 | .
COc1ccc(N(CC(=O)N2c3ccccc3CC2C)S(=O)(=O)c2c(C)noc2C)cc1 (configuration not stated) | -14 | -2 | -20 | 2 | i | -9 | -4 | 3
O=C(NN1C(=O)C2C3C=CC(C3)C2C1=O)c1ccco1 (configuration not stated) | 4 | 6 | . | 1 | i | -1 | 1 | -16
Cc1cccc(NC(=O)COC(=O)c2ccc(S(=O)(=O)N3CCCC3)cc2)c1 | -8 | . | -18 | . | . | 1 | 0 | .
COc1ccc(NC(=O)CSCc2cc(=O)n3ccsc3n2)cc1 | 1 | -8 | -17 | -5 | i | -2 | 5 | 5
O=C(Nc1ccccc1C(=O)NCCN1CCOCC1)c1ccco1 | 0 | -4 | -11 | -4 | i | 0 | 4 | .
COc1ccc(NC(=O)NNC(=O)COc2ccc3ccccc3c2)cc1 | -7 | 0 | 2 | -5 | i | 5 | 0 | .
